# CSC inhib: cancer stem cell viability inhibitors, primary screen, luminescence | cancer stem cell-like cells viability | actives 1.1% (n = 300,000) | inhibition, % at 7.5 µM | AID 2717, 2010;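 active = mean at 75% or more and at least half the replicates too; tested in HMLE shEcad cells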;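 also: 0% = median of negative and 100% = median of positive control wells; the first replicate is given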
# MT1-MMP act inh: blockers of MT1-MMP proenzyme processing, primary screen, HT1080 RFP-PRO-GFP cells, GFP/RFP fluorescence. actives 0.061% (n = 360,000). Matrix metalloproteinase-14 (Homo sapiens), P50281. AID 651647, 2012. GFP/RFP ratio fluorescence, overnight; percent of plate control window, DMSO zero. GFP/RFP ratio change, % at 20 µM;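 active = GFP/RFP ratio change of at least 30% with cell ATP level not reduced by more than half and red fluorescence within 50% of control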; also: strong numbers were not always called active
#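 Material: RFP-PRO-GFP reporter HT1080 cells. Dosing: single-point 20 µM compound, 1% DMSO. Controls: DMSO and RFP-L50D-GFP cell wells. Timing: cells overnight before dosing, compound overnight, 37 °C, 5% CO2. Measure: GFP/RFP fluorescence ratio.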
# eIF4H inh: human eIF4H binding inhibitors, primary screen, translation initiation inhibitor project, biochemical, uHTS, fluorescence polarization; Eukaryotic translation initiation factor 4H (Homo sapiens), Q15056; eIF4H fluorescence polarization binding assay; inhibition, % at 35 µM; actives 0.94% (n = 290,000);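 active = 50% or more with normal probe brightness, or confirmed in later tests; about a fifth of its hits are not listed in these tables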;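 also: calls also rest on retests at 20 µM and on dose response follow-up; 0% = protein and probe with vehicle and 100% = probe without protein; strong numbers were not always called active; many hits fall short of the cut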
# HIV Env fusion: inhibitors of HIV-1 Env-driven cell-cell fusion, primary screen, HeLa-JRFL effector, CEM21 target cells, luciferase | inhibition, % at 12.3 µM | actives 1.1% (n = 360,000);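 active = mean replicate inhibition score of at least 50 and every replicate individually at or above 50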;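 also: 0% = plate neutral controls and 100% = maraviroc near 300 nM; one replicate is shown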
# UUG fidelity: modulators of yeast start codon fidelity, primary screen, whole organism, S. cerevisiae, single point, plate reader; activity score, % at 18.7 µM; S. cerevisiae UUG-firefly luciferase reporter, luminescence/redox ratio; actives 0.13% (n = 350,000); AID 602363, 2012;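 active = replicate mean at a twofold rise or more, about +100% in these data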;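 also: firefly luciferase made from a UUG start codon reports start codon fidelity; reporter light over untreated wells divided by growth signal over untreated wells; some hits fall short of that in this replicate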
# Rce1 inh: yeast Rce1p protease inhibitors, primary screen, biochemical, fluorescence, cell-free homogeneous | calls only | yeast membranes, quenched prenylated peptide cleavage fluorescence | actives 0.27% (n = 290,000) | CAAX prenyl protease 2 (Saccharomyces cerevisiae (strain ATCC 204508 / S288c)), Q03530;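 active = fall in fluorescence gain of 50% or more versus controls, with final raw signal at or below 3038400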;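 also: plate controls were neutral control wells for no effect and wells lacking membranes for full effect; tested at 10 µM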
# PABP polyA inh: PABP poly(A) RNA binding inhibitors, primary screen, biochemical, fluorescence polarization, uHTS | Polyadenylate-binding protein 1 (Homo sapiens), P11940 | inhibition, % at 35 µM | actives 1% (n = 290,000) | AID 2014, 2009;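 active = 50% or more with normal probe brightness, or confirmed in later tests; about a fifth of its hits are not listed in these tables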;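 also: calls also rest on retests at 20 µM and on dose response follow-up; controls were probe without protein and protein plus probe with vehicle; some compounds called inactive have numbers as strong as hits; many hits fall short of the cut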
# Target sequence (P11940 whole entry, looked up): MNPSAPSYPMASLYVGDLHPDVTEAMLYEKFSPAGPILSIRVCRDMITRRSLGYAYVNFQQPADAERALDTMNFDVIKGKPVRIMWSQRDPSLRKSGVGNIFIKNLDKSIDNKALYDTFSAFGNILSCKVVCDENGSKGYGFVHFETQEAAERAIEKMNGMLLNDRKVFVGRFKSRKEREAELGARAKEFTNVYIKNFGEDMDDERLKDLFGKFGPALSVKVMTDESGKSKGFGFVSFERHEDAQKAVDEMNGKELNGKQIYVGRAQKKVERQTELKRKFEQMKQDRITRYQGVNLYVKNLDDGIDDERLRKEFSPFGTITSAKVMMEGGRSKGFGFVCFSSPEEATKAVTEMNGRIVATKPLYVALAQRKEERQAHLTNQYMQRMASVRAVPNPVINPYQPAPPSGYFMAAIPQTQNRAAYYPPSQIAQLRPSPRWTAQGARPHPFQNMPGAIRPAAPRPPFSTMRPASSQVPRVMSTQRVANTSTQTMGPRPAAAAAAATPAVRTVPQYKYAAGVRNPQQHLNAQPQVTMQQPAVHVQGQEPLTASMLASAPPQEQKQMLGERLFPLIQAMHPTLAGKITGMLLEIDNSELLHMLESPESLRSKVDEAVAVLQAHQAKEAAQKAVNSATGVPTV
# eIF4H inh retest: further read-out of eIF4H inh, marked with its call; inhibition, %; compound at 20 µM; confirmation average;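 mean of two retest wells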
# PABP polyA inh retest: further read-out of PABP polyA inh, marked with its call; inhibition, %; compound at 20 µM; confirmation repeats;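 mean of two retest wells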
# MT1-MMP act inh RFP: further read-out of MT1-MMP act inh, marked with its call; RFP signal change, %; measured here: RFP expression control read;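 0 = vehicle wells; hits needed this value within 50% of zero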
# * = called active by the depositor; i = inactive; x = no result given; + = active, no number; & = joins results of further samples. A portion of the library; the hit share may differ from the screen's.
SMILES,CSC inhib,MT1-MMP act inh,MT1-MMP act inh RFP,eIF4H inh,HIV Env fusion,UUG fidelity,Rce1 inh,PABP polyA inh,others
CCSc1cnn(-c2ccccc2)c(=O)c1Cl,0,0,-1,x,-15,x,i,x,
CN(Cc1ccno1)Cc1cn(Cc2ccccc2)nc1-c1ccc2c(c1)OCO2,-12,-3,-5,-6,2,x,i,7,
CCS(=O)(=O)c1ccc(O)c(NC(=O)COc2ccc(Br)cc2)c1,-10,5,5,-1,-5,x,i,4,
CC(=O)c1ccc(NC(=O)C(C)OC(=O)CCCN=C2NS(=O)(=O)c3ccccc32)cc1 (configuration not stated),-16,4,-1,x,x,-19,i,x,
O=C(CN1C(=O)NC(Cc2c[nH]c3ccccc23)C1=O)NCCc1ccccc1 (configuration not stated),-11,2,-1,1,-19,-6,i,2,
CCOC(=O)C1CCN(C(=O)Nc2cccc(OC)c2)CC1,-9,1,5,-4,8,-11,i,4,
COc1ccc(NC(=O)CC2C(=O)N(c3ccc(OC)cc3)C(=O)N2C(C)C)cc1 (configuration not stated),-12,4,5,5,2,-3,i,4,
COc1cc(CC(=O)OCC(=O)N2C(C)CCCC2C)cc(OC)c1OC (configuration not stated),-5,2,2,8,-83,8,i,10,
Cc1cccn2c(=O)c(/C=C(\C#N)C(N)=O)c(N3CCN(Cc4ccc5c(c4)OCO5)CC3)nc12,-12,x,x,-7,14,-2,i,2,
CC(C)(Oc1ccc(Cl)cc1)C(=O)Nc1cccc(S(=O)(=O)NC2=NCCC2)c1,x,-3,-2,x,-8,0,x,x,
CCn1cc(C(=O)NCCN(C)C)c(=O)c2cc(F)c(N3CCN(C)CC3)cc21,-5,2,1,3,-16,4,+,48,
CCCCN(CC)C(=O)Cc1c(C(=O)O)[nH]c2ccc(Cl)cc12,8,1,2,0,x,-52,i,1,
O=C1CCCN1CC(CN1CCOCC1)Sc1nnnn1-c1ccccc1 (configuration not stated),-5,1&8,7&3,-1,7,-21,i,-6,
CC(NC(=O)/C(C#N)=C/c1ccco1)c1ccccc1 (configuration not stated),-1,-9,0,-3,17,-13,i,-4,
COc1ccc(NC(=O)CN(C)C(=O)c2ccc(N3CCCCCC3)c([N+](=O)[O-])c2)cc1,8,7,0,x,-23,12,i,x,
CCN1CCCC1CNCc1cccc(OC)c1OCc1ccc(F)cc1 (configuration not stated),x,2,4,-6,7,x,i,3,
O=C(Nc1cccnc1)c1cc(-c2cccnc2)nc2ccc(Br)cc12,x,7,4,16,x,x,i,2,
Cc1c(NC(=O)CSCc2c(F)cccc2Cl)c(=O)n(-c2ccccc2)n1C,-14,x,x,1,x,x,i,-10,
O=C(Cn1cc(S(=O)(=O)Cc2ccccc2)c2ccccc21)Nc1ccccc1,-1,2,1,14,x,x,i,12,
Cc1ccc(C)c(S(=O)(=O)Nc2ccc(S(=O)(=O)Nc3onc(C)c3C)cc2)c1,x,3,5,9,x,-2,i,6,
CC(=O)NC(CCC(=O)O)C(=O)O (configuration not stated),x,1,4,x,25,-4,x,x,
Cc1nn(-c2ccccc2)c2c1C(c1ccc(F)cc1)C(C#N)=C(N)O2 (configuration not stated),4,1,-1,7,3,x,i,8,
Cc1ccccc1OCCn1ccnc1,-3,3,1,-11,-4,-13,i,-12,
O=S(=O)(c1ccccc1)N1CCN=C1SCc1ccccc1Cl,4,1,2,-3,-1,x,x,1,
CC(Oc1ccccc1F)C(=O)NNC(=O)CCNC(=O)c1ccccc1Cl (configuration not stated),1,-2,1,-7,-8,0,i,3,
CN(Cc1ccccc1F)c1cc2c(c3c1ccn3C)C1CCC2O1 (configuration not stated),x,2,-2,x,8,-12,x,x,
Cc1cccc(-c2nc(CSCC(=O)N3CCN(c4ccccn4)CC3)c(C)o2)c1,17,1,-12,4,89*,-12,i,5,
O=C(CSc1nnc(-c2ccccc2O)o1)N1CCCCC1,20,1,6,-8,-5,-7,i,4,
O=[N+]([O-])CC(=Nc1ccc(F)cc1)N/N=C\c1oc(O)c2ccccc12,-5,x,x,32,x,x,i,17,
COC(=O)CCN(C(=O)C1C2CC3CC(C2)CC1C3)c1ccccn1 (configuration not stated),1,-5,-2,0,27,x,i,-12,
COCCNC(=O)C(=O)NNC(=O)COc1ccc(OC)cc1,-13,4,10,-4,-19,x,i,-13,
CSc1ccccc1OCc1cc(C(=O)N2CCCC(C)C2)no1 (configuration not stated),2,1,-2,7,-102,2,i,25,
COC(=O)c1c(C)cc(O)c(C=O)c1O,-12,5,6,x,x,-14,i,x,
C[C@@H]1COC(=O)[C@@H](Cc2ccc(F)cc2)C/C=C\C[C@@H](CC(=O)N(CCO)Cc2ccccc2)C(=O)N1,x,6,-5,x,14,2,x,x,
O=c1c(Oc2ccccc2)coc2cc(O)cc(O)c12,18,4,4,x,x,-2,i,x,
O=C(CSc1nc(-c2cccs2)cc(C(F)(F)F)n1)NCc1ccco1,x,0,0,-11,x,-13,i,9,
CC(=O)N1CCSc2ccc(S(=O)(=O)Nc3cccc(C)c3)cc21,20,-1,-21,-14,8,10,i,-8,
Cc1nc(CSc2nnc(Nc3cccc(C)c3C)s2)cs1,-18,-2,-1,-1,x,-20,i,1,
COc1cccc(/C=C/C(=C2/C(=O)N(c3ccccc3)N=C2C)c2ccc(C)cc2)c1OC,-6,7,3,-8,-22,x,i,-11,
Cc1ccccc1C(=O)Oc1ccc(Br)cc1C(=S)N1CCCC1,5,-8,-5,6,1,-2,i,2,
CCOc1ccc(NC(=O)C/C(C)=N/NC(=O)c2cnccn2)cc1,-19,-1,3,-13,-3,-26,i,-1,
COc1cc(C(=O)NC(C)c2ccc3ccccc3c2)cc(Cl)c1O (configuration not stated),1,-1,0,-1,8,-1,i,6,
Cc1c(Cl)cnc(NC(=O)CSc2n[nH]c(N)n2)c1Cl,x,0,4,x,-2,-17,x,x,
O=C(NC1CCCCCC1)c1ccc(N2CCCC2=O)cc1,-5,0,3,-13,-213,-13,i,-10,
CC(C)CC(=O)Nc1ccc(C(=O)NNC(=O)C(c2ccccc2)c2ccccc2)cc1,-2,2,1,0,-21,-15,i,-6,
CCCc1ccc(OCc2nc(-c3ccc(NC(=O)c4cccs4)cc3)no2)cc1,5,5,4,6,-54,-13,i,2,
Cc1c(NS(=O)(=O)c2ccc3nc(COc4ccccc4Cl)[nH]c3c2)c(=O)n(-c2ccccc2)n1C,-22,-1,0,9,7,-5,i,-9,
COc1ccc(NC(=O)c2oc3ccc(S(=O)(=O)N4CCOCC4)cc3c2C)cc1,x,1,-3,-8,6,-6,i,6,
COc1ccc(Cl)cc1NC(=O)c1cnccn1,-8,0,0,-14,-9,-3,i,4,
CCc1nc(SCC(=O)NNC(=O)c2ccc(C)cc2)c2ccccc2n1,-5,1,2,2,18,-16,i,4,
Cc1ccc(NC(=O)c2ccccc2)cc1C,-11,2,0,x,-13,-12,x,x,
CCOC(=O)C1CCCN(C(=O)C2CC(=O)N(c3ccc(C)cc3)C2)C1 (configuration not stated),-4,2,3,-8,x,-17,i,-8,
COc1ccc(/C=C/C(=O)OC(C)CN2CCCCC2)cc1 (configuration not stated),-8,-3,-4,-11,7,-4,i,-8,
Nc1nnc(SCC(=O)OCC(=O)Nc2ccc(Br)cc2)s1,-1,2,2,-14,x,-17,i,-2,
COc1cc([N+](=O)[O-])cc(/C=N/NC(=O)c2cc(C)nc3ccccc23)c1O,5,4,-4,2,16,x,i,-15,
CCN(CC)C(=O)CSc1nnc(NC(=O)CCc2ccccc2)s1,x,-1,-1,-6,18,x,i,8,
Nc1nnnn1/N=C/c1ccc(Cl)cc1,x,3,1,-5,-7,-2,i,18,
Cc1cc(C)nc(Nc2ccccc2F)n1,8,2,4,1,-12,-17,i,-8,
CSc1ccc(/C=N\NC(=O)COc2ccc(Cl)cc2Br)cc1,-1,-3,3,-2,-51,-14,i,1,
CC(=O)NCCC(=O)N1CCCC(N2CCN(c3cccc(Cl)c3)CC2)C1 (configuration not stated),-3,0,-1,-6,-12,-3,i,2,

# New compounds follow:
SMILES,CSC inhib,MT1-MMP act inh,MT1-MMP act inh RFP,eIF4H inh,HIV Env fusion,UUG fidelity,Rce1 inh,PABP polyA inh,others
COc1cccc(C(=O)O/N=C(\N)CS(=O)(=O)c2ccccc2)c1,-14,-1,1,-5,-15,3,i,4,
O=C(Nc1ccc(CN2CCCCC2)cc1)c1cccc(Br)c1,34,6,2,0,13,x,i,7,
COc1cccc(NC(=O)C(=O)N/N=C(\C)CC(=O)Nc2ccc(NC(C)=O)cc2)c1,2,-2,-1,-8,-29,-14,i,1,
Cc1ccc(NC(=O)CSc2nnc(-c3ccccn3)n2N)c(Br)c1,-15,0,2,-4,2,-23,i,3,
COc1ccc(C(=O)NCCCN2CCOCC2)cc1Br,9,2,10,8,4,-17,i,-7,
Cc1ccc(-c2c(C#N)c(N)nc3c2CCCC3)o1,-8,-4,0,60,-11,x,i,-7,eIF4H inh retest=38;PABP polyA inh retest=38
Cc1ccc(C(=O)NCC(=O)Nc2ccccc2C(F)(F)F)cc1,0,5,6,-1,11,x,i,3,
Cc1cc(Oc2ccccc2F)nc(NCc2ccccc2)n1,x,-2,-11,0,x,-6,i,8,
CCc1ccc(NC(=O)CSc2nnc(-c3cccs3)n2CC)cc1,-10,-7,-6,-5,x,-13,i,-4,
O=C(O)C(Cc1ccccc1)Nc1ccc([N+](=O)[O-])cc1[N+](=O)[O-] (configuration not stated),11,-8,1,3,-26,-9,i,5,
CC1CCCN(C(=O)CSCC(=O)N=c2sc3ccccc3n2C)C1 (configuration not stated),-8,3,5,3,x,-4,i,7,
CCNC(=O)c1ccccc1-c1nc(-c2ccccc2Cl)no1,-10,0,0,-6,x,-8,i,-2,
N#CCC(=O)NCCCOC(=O)Nc1ccc(Cl)c(Cl)c1,14,4,-3,-7,x,-9,i,-8,
Cn1nnnc1SCc1cn2cccnc2n1,-12,-1,5,6,x,x,i,-1,
CCN1CCN(c2cc(C)c3cc(NC(=S)N4CCN(c5ccccc5F)CC4)ccc3n2)CC1,57,2,-1,-5,-1,-21,i,-2,
Cc1ccccc1-n1c(C)nnc1SCC(=O)N1CCc2ccccc2C1,-3,-3,2,19,-11,-42,i,1,
COc1ccc(-n2c(SCC(=O)O)nnc2-c2ccc(NC(=O)c3ccccc3)cc2)cc1,-6,0,0,2,1,x,i,-1,
Cc1ccc(C(=O)N/C(=C\c2ccc(-c3ccccc3[N+](=O)[O-])o2)C(=O)NCCCN2CCOCC2)cc1,11,-2,0,98*,6,16,i,82*,
O=C(COc1ccccc1[N+](=O)[O-])NCc1cccnc1,-1,0,6,-1,2,x,i,0,
CCOc1ccc(NC(=O)c2ccc(N)cc2)cc1,8,-2,5,2,5,-16,i,-8,

# Looked up one by one from the entries so far:
SMILES,CSC inhib,MT1-MMP act inh,MT1-MMP act inh RFP,eIF4H inh,HIV Env fusion,UUG fidelity,Rce1 inh,PABP polyA inh,others
Cc1ccc(-c2c(C#N)c(N)nc3c2CCCC3)o1,-8,-4,0,60,-11,x,i,-7,eIF4H inh retest=38;PABP polyA inh retest=38
Cc1ccccc1-n1c(C)nnc1SCC(=O)N1CCc2ccccc2C1,-3,-3,2,19,-11,-42,i,1,
Cc1ccc(C(=O)NCC(=O)Nc2ccccc2C(F)(F)F)cc1,0,5,6,-1,11,x,i,3,

# Screens deposited in PubChem by several laboratories.
